# rRNA inh HTS: reduced GFP signal of wild-type E. coli, primary screen, bacterial rRNA inhibitor project, GFP/RFP fluorescence, OD600, single point; E. coli WT GFP vs humanized-ribosome RFP mutants, 24 h; stronger effect = lower value; DMSO median 0, no signal -100; GFP signal change (wild-type ribosome), % (concentration not given with the values); 350,000 tested, 1.6% active;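 active = significant combined selectivity score with lowered wild-type GFP, culture density cut under 30%, mutant RFP and density less affected; inactive = any of these conditions unmet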; note: one replicate is shown; some compounds called inactive have numbers as strong as hits
# Beta2AR agonist: beta2AR agonists driving receptor internalization, primary screen, cell-based, FAP fluorogen, flow cytometry. 340,000 tested, 0.43% active. Am2.2-beta2AR cells; reference of the scale not given here. response, % (test concentration not listed);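 active = response above a set limit, near 3 SD of response in nonfluorescent compounds, cut at about 42% in these data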;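 note: stock transfer was 100 nL into about 11 µL; a reference agonist was the positive control; negative values mostly stem from fluorescent compounds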
# Target sequence (P07550 whole entry, looked up): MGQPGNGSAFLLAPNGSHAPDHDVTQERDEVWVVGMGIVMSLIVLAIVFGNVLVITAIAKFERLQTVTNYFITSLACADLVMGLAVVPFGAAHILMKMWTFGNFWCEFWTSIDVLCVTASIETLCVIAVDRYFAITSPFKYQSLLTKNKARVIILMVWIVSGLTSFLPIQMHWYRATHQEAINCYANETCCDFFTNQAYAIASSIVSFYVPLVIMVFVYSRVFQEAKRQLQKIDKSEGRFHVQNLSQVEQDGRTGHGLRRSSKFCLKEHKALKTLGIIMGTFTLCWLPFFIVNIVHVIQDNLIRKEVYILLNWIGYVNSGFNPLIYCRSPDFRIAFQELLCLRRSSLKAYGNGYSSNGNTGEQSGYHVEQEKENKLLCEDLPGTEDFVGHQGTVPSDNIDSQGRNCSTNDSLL
# rRNA inh HTS OD600: second read-out of rRNA inh HTS, no call of its own (marks repeat the call); OD600 change, %; measured here: OD600 growth;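 optical density of the mix in the first replicate; 0 = DMSO median and -100 = no signal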
# rRNA inh HTS RFP: also measured in rRNA inh HTS; calls as there; RFP signal change, %; measured here: RFP humanized mutant strains;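 first replicate; 0 = DMSO median and -100 = no signal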
# * marks the source's active call; other numbers are inactive results; & = joins results of further samples. An excerpt. The share of hits here may be higher or lower than overall.
# Fields – rRNA inh HTS	rRNA inh HTS OD600	rRNA inh HTS RFP	Beta2AR agonist
COc1ccc(C2CC(=O)Oc3cc(C)c(Cl)c(C)c32)cc1 (stereo unspecified)
    -22	-28	-5.6	2
Cc1sc2nc(SCC(=O)Nc3cccc(C(=O)O)c3)[nH]c(=O)c2c1C
    11	14	1.7	6
Cc1cc(NC(=O)CSCC(=O)Nc2cc(C(F)(F)F)ccc2N2CCCCC2)no1
    3	7	-1.0	-1
COc1cc(/C=N/N2C(=O)CSC2=S)cc(Br)c1O
    -2	-7	12	-12
COc1ccc(C(=O)c2ccccc2CN2C(=O)c3ccccc3C2=O)cc1
    -12	-34	1.0	-12
O=c1[nH]c2cnn(-c3ccccc3)c2c(=O)n1O
    -4	-8	1.6	-2
Cc1c(Cl)cccc1Nc1n[nH]c(=S)s1
    -23	-20	-1.6	6
COC(=O)c1c(-c2ccccc2OC)sc2cc3c(cc12)OCO3
    3	-20	-14	8
CCOc1ccc(S(=O)(=O)N2CCN(C(=O)c3cc(S(=O)(=O)N4CCOCC4)ccc3C)CC2)cc1
    -1	-6	0.6	-9
OCCN(Cc1cccnc1)Cc1ccccn1
    18	10	1.4	-2
Cn1nc(C(=O)NCCc2ccc3c(c2)OCCO3)c2ccccc2c1=O
    2	-6	2.3	-5
COc1ccccc1NC(=O)COC(=O)c1cc2c(s1)CCC2
    -1	0	-1.6	-7
CCOC1=NC(=C(c2ccccc2)c2ccccc2)OC1=O
    2	8	-5.0	0
Cc1cc(C(=O)N2CC(C)CC(C)C2)c(C)o1 (stereo unspecified)
    0	3	-2.9	-5
CCCCn1c(N)c(N(C(=O)CSc2nncn2-c2ccccc2)C2CCCC2)c(=O)[nH]c1=O
    6	9	2.4	-7
O=C(CSc1nnc(CN2CCCC2)n1-c1ccc(F)cc1)c1ccc2c(c1)OCO2
    -4	0	9.1	-4
Cc1noc(C)c1S(=O)(=O)Nc1ccc2c(c1)C(=O)N([C@H](C)CO)C[C@H](C)[C@@H](CN(C)C(=O)Nc1ccc3c(c1)OCO3)O2
    6	-1	-0.4	5
Cc1cc(C(=O)NNC(=O)c2ccc(C)c([N+](=O)[O-])c2)c(C)o1
    6	5	-2.6	2
CC(NC(=O)CN1C(=O)NC2(CCc3ccccc32)C1=O)c1ccccc1 (stereo unspecified)
    11	9	2.1	-5
CC(C)(C)S(=O)(=O)N1C[C@@H]2CC/C=C\C/C=C\2[C@H]1CCO
    0	-2	0.2	-5
OCC(O)C1OC(c2ccccc2)OC(CO)C1O (stereo unspecified)
    8	14	3.2	-7
CCOc1ccccc1N1CC(C(=O)Nc2cc(S(=O)(=O)N3CCOCC3)ccc2OC(C)C)CC1=O (stereo unspecified)
    0	12	-5.2	-8
CC(=O)c1ccccc1NC(=O)CSCc1nc2sc(C)c(C)c2c(=O)[nH]1
    6	12	4.0	2
COc1cccc(NC(=O)CN(C)C(=O)C(Sc2ccccc2)c2ccccc2)c1 (stereo unspecified)
    -18	-21	-4.1	-8
COc1cc(OC)c(OC)cc1CNC(=O)c1cc(S(=O)(=O)N(C)c2ccccc2OC)ccc1C
    -8	-12	-1.1	-1
O=C(c1cccc(S(=O)(=O)N2CCCCCC2)c1)N1CCN(Cc2ccccc2)CC1
    -2	-10	4.6	-2
O=C(O)c1ccccc1C(=O)OC1CCCC2CCCC21 (stereo unspecified)
    -10	-8	2.7	4
CC(Sc1nnc(COc2ccc(Cl)cc2)o1)C(=O)Nc1ccc(N2CCOCC2)cc1 (stereo unspecified)
    9	2	0.9	6
COc1ccc2[nH]c3c(c2c1)CCN1C(=O)C(CC(=O)NCc2cccc(C(F)(F)F)c2)C[C@H](C(=O)N2CCCCC2)[C@@]31C (stereo partly specified)
    -7	-7	4.3	2
Cn1c(=O)c2[nH]c(Cc3ccsc3)nc2n(C)c1=O
    5	12	0.8	-7

# 5 compounds drawn at random from the list so far:
# Fields – rRNA inh HTS	rRNA inh HTS OD600	rRNA inh HTS RFP	Beta2AR agonist
Cn1c(=O)c2[nH]c(Cc3ccsc3)nc2n(C)c1=O
    5	12	0.8	-7
O=C(CSc1nnc(CN2CCCC2)n1-c1ccc(F)cc1)c1ccc2c(c1)OCO2
    -4	0	9.1	-4
COc1ccc(C2CC(=O)Oc3cc(C)c(Cl)c(C)c32)cc1 (stereo unspecified)
    -22	-28	-5.6	2
Cn1nc(C(=O)NCCc2ccc3c(c2)OCCO3)c2ccccc2c1=O
    2	-6	2.3	-5
CCOc1ccc(S(=O)(=O)N2CCN(C(=O)c3cc(S(=O)(=O)N4CCOCC4)ccc3C)CC2)cc1
    -1	-6	0.6	-9

# Continuation:
# Fields – rRNA inh HTS	rRNA inh HTS OD600	rRNA inh HTS RFP	Beta2AR agonist
CN(C)C(=O)CCc1ccc2c3c([nH]c2c1)[C@]1(C)[C@@H](C(=O)N2CCCCC2)C[C@H](CC(=O)NCCCn2ccnc2)C(=O)N1CC3
    15	6	-0.6	-4
C=CCn1c(SCC(=O)N(CC)C2CCS(=O)(=O)C2)nc2scc(-c3ccccc3)c2c1=O (stereo unspecified)
    -6	-9	35	9
CC(NC(=O)c1ccc2c(=O)n3c(nc2c1)CCCCC3)c1ccccc1 (stereo unspecified)
    -7	-3	1.6	-1
CN(C(=O)c1cccc(NC(=O)Cc2ccc(NC(=O)C3CCN(S(=O)(=O)c4cccc([N+](=O)[O-])c4)CC3)cc2)c1)C1CC1
    3	6	-3.0	3
N#Cc1c(N)[nH]c2ccc(Sc3ccccc3)cc12
    -67	-76	-22	31
Cc1onc(-c2c(F)cccc2Cl)c1C(=O)OCC(=O)Nc1cccc(S(=O)(=O)N(C)C)c1
    -22	-24	1.0	13
CC(=O)C1(O)CCC2C3CCC4CC(O)CCC4(C)C3C(=O)CC21C (stereo unspecified)
    2	7	3.3	6
COc1ccccc1N(C)S(=O)(=O)c1ccc(C(=O)Nc2nc(C)c(C(C)=O)s2)cc1
    11	16	3.1	10
Cc1cccc(NS(=O)(=O)c2ccc(C)c(C(=O)NNC(=O)c3csc(N4CCOCC4)n3)c2)c1
    -3	-7	3.3	-1
CC(=O)c1ccccc1NC(=O)CN1C(=O)NC2(CCCCCCC2)C1=O
    1	-1	0.2	-7
CCC(C)c1ccc(S(=O)(=O)N2CCN(CC(O)COCC3CCCO3)CC2)cc1 (stereo unspecified)
    -3	-16	-3.1	-6
CCc1ccc([C@H]2C(C(=O)O)=C[C@@H](C(C)(C)C)N2S(=O)(=O)c2ccc(C)cc2)cc1
    -4	-3	-0.9	12
O=C1c2ccccc2C(=O)c2cc(N3CCCCC3)ccc21
    1	10	52	-132
COc1ccc(NS(=O)(=O)c2cc(NS(=O)(=O)c3cc(C(=O)O)ccc3OC)ccc2C)cc1
    4	8	-0.6	-7
Cc1cc(=O)oc2c(CN3CCCCC3)c(O)ccc12
    7	12	0.6	-7
CC1CN(C=O)CC(C)N1CCN1C(C)CN(C=O)CC1C (stereo unspecified)
    4	11	-1.4	-2
CC(=O)C(Cl)C(=O)Nc1ccccc1 (stereo unspecified)
    26	6	-0.4	2
O=C(O)c1ccc(COc2ccc3ccccc3c2/C=C2/NC(=O)N(Cc3ccc(F)cc3)C2=O)cc1
    11	11	4.1	9
C[C@H](CO)N1C[C@H](C)[C@@H](CN(C)C(=O)Nc2ccc3c(c2)OCO3)Oc2ccc(NS(=O)(=O)c3ccc(F)cc3)cc2C1=O
    3&6	11&16	-0.1&4.8	-4
Cc1ccc(NC(=O)COc2ccccc2C(N)=O)cc1S(=O)(=O)N1CCCCCC1
    -34	-45	-5.0	11
O=C(COC(=O)C1CC1)NCCc1ccc(Cl)cc1
    2	7	-2.2	3
Cc1cc(C)n2nc(C(=O)OCC(=O)N(Cc3ccccc3)C(C)C)nc2n1
    0	0	-1.6	-6
CN(CCc1ccccc1)C(=O)c1cccc(NC(=O)Cc2cccc(NC(=O)C3CCN(C(=O)C4CCC4)CC3)c2)c1
    1	-15	-2.8	-7
CCC1(CCC(C)C)SC(N)=NC1=O (stereo unspecified)
    8	7	1.4	11
NC(=O)c1nnsc1-c1ccco1
    21	11	3.0	-5
Nc1ncnc2c(C3OC(CO)C(O)C3O)scc12 (stereo unspecified)
    13	16	-1.1	8
N#CC(=C(c1ccccc1)c1ccccc1)c1ccccc1
    1	-2	-1.8	-4
O=S1(=O)c2ccc(Br)cc2N2CCC[C@@H]2CN1Cc1ccc(Cl)cc1
    2	4	1.0	-1
CC1=CN(S(=O)(=O)c2ccc(C)cc2)C[C@@H]2[C@H]3CC[C@H](C3)[C@H]12
    -24	-27	-4.7	1
O=S(=O)(CCN1CCCCC1)CCS(=O)(=O)CCN1CCCCC1
    4	7	-1.6	-1
CC(NS(=O)(=O)c1ccc(Cl)cc1)C(=O)OCC(=O)Nc1ccc(N(C)C)cc1 (stereo unspecified)
    4	8	-3.4	3
COc1cc(OC)c(C(=O)Nc2cc(S(=O)(=O)N3CCOCC3)ccc2N2CCN(C)CC2)cc1OC
    -4	3	-1.7	4
CC1(c2ccc3ccccc3c2)CCC(=O)O1 (stereo unspecified)
    -4	-7	-2.2	-4
O=C1C2CCCCN2C(=O)N1CCCCN1CCN(c2cccc(C(F)(F)F)c2)CC1 (stereo unspecified)
    -4	0	-0.9	59*
CN(C(=O)c1ccc(NC(=O)Cc2ccc(NC(=O)C3CCN(S(=O)(=O)c4cccc([N+](=O)[O-])c4)CC3)cc2)cc1)C1CCCC1
    24	16	2.8	4
C=CC1=CCN(S(=O)C(C)(C)C)[C@H]1CCO (stereo partly specified)
    -3	9	0.8	-9
O=C1NC(=O)C(c2ccccc2)(c2ccccn2)N1 (stereo unspecified)
    5	10	-2.9	-2
CCOc1ccc(NC(=O)CN(C)C(=O)c2cccc(S(=O)(=O)N3CCN(C)CC3)c2)cc1OCC
    10	12	-1.2	-3
Cc1ccc(S(=O)(=O)N2CCCCC2)cc1NC(=O)COC(=O)C1(C)CC1(Cl)Cl (stereo unspecified)
    -6	-22	-1.6	5
Cc1ccc(S(=O)(=O)N2CCN(C(=O)[C@H](Cc3ccccc3)NC(=O)c3ccco3)CC2)cc1
    1	-18	1.0	-8
O=C1OC(c2ccccc2)(c2cc(Br)ccc2O)c2ccccc21 (stereo unspecified)
    -61	-77	-18	15
CC(C)c1ccc(S(=O)(=O)N2CCN(C(=O)CCNC(=O)Nc3ccccc3)CC2)cc1
    -4	-18	6.2	9
O=C(N/N=C/c1ccc(Br)cc1)c1ccc(NC(=O)c2ccccc2)cc1
    24	4	-1.6	-7
Cc1cccc(COc2ccc(S(=O)(=O)N3CCOCC3)cc2[N+](=O)[O-])c1
    4	3	-3.0	-8
COc1cccc(C2c3cc4c(cc3OC(NNC(N)=O)C2C)OCO4)c1O (stereo unspecified)
    -1	-10	-0.6	-91
CC(C)C(=O)N[C@@H]1c2ccccc2CC[C@H]1OCc1ccccc1
    8	7	1.3	-9
S=c1nc2[nH]c3ccccc3c2n[nH]1
    7	10	0.8	2
O=C(COC(=O)/C=C/c1c(F)cccc1Cl)NCC1CCCO1 (stereo unspecified)
    -2	-8	2.2	-11
CC1CN(C(C)C)C(=S)NC1=O (stereo unspecified)
    7	16	-2.5	-6
O=CNc1ccc2c3c(cccc13)-c1ccccc1-2
    12	-2	4.1	-30
CCCCc1ccc(/C=C(\C#N)C(N)=S)s1
    -12	-10	-2.6	-4
OC1COC(c2ccccc2)OC1C(O)C1OC(c2ccccc2)OCC1O (stereo unspecified)
    16	18	4.2	1
CCOC(=O)C1=CN(CC)S(=O)(=O)NC1c1ccc(C(F)(F)F)cc1 (stereo unspecified)
    -24	-23	0.4	-2
Cc1cccc(-c2nc(CS(=O)CC(=O)NC3CCCC3)c(C)o2)c1 (stereo unspecified)
    1	0	2.1	-4
CCc1ccc(NC(=O)CN2CCN(c3ccc(OC)cc3)CC2)cc1
    -7	-14	5.8	-1
CCC1CN2CCc3cc(OC)c(OC)cc3C2CC1CC1c2cc(OC)c(OC)cc2CCN1C(=O)C(Cc1c[nH]c2ccccc12)NC(=O)OC(C)(C)C (stereo unspecified)
    49	9	16	-5
O=C(NNCc1ccccc1)c1ccccn1
    0	10	-1.1	-3
O=C1NC(=O)C(=Cc2ccc(Cl)cc2Cl)S1
    -59	-77	-22	6
COc1ccc(OC)c(Cc2cnc3nc(N)nc(N)c3c2C)c1
    -53	-71	-19	4
Nc1nc(=O)c2ccccc2s1
    1	10	-2.7	-10
O=C1CCCCC1CCc1ccncc1 (stereo unspecified)
    7	1	-2.0	-1
O=C(COC(=O)COc1ccc2c(c1)CCC2)Nc1ccccc1
    8	10	4.5	3
NC(N)=N/N=C(\N=Nc1ccccc1)c1cccc2cccnc12
    3	6	-1.1	27

# Arranged by the number under rRNA inh HTS OD600 (highest first): 4 from the list above.
# Fields – rRNA inh HTS	rRNA inh HTS OD600	rRNA inh HTS RFP	Beta2AR agonist
NC(N)=N/N=C(\N=Nc1ccccc1)c1cccc2cccnc12
    3	6	-1.1	27
Cc1cccc(COc2ccc(S(=O)(=O)N3CCOCC3)cc2[N+](=O)[O-])c1
    4	3	-3.0	-8
O=C1CCCCC1CCc1ccncc1 (stereo unspecified)
    7	1	-2.0	-1
CC1(c2ccc3ccccc3c2)CCC(=O)O1 (stereo unspecified)
    -4	-7	-2.2	-4
